Screens from PubChem.
MT1-MMP promoter = inhibitors of MT1-MMP promoter transcription, cell-based, luciferase reporter, luminescence (AID 618); calls from a first round at 10 µM; hits with a dose series show EC50 in µM; hit rate 0.62% among 87,000; MT1-MMP promoter luciferase reporter cells, luminescence;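 active = over half of the reporter light lost at 10 µM or EC50 under 50 µM; inactive = the rest and hits that failed the dose series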;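 also: actives suppress MT1-MMP promoter-driven transcription so potencies describe inhibitors; HT1080 fibrosarcoma cells; overnight exposure; toxic or luciferase-blocking compounds were not removed from the actives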
WNV NS2B-NS3 inh = inhibitors of WNV NS2B-NS3 protease, primary screen, biochemical, fluorogenic substrate. Genome polyprotein (West Nile virus), P06935. fluorogenic substrate Ex360/Em465; active compounds read low. z-score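 (tested at a level between 10 and 100 µM)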. hit rate 0.18% among 65,000;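 active = z-score at -3 or under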;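 also: score is relative to mean and spread of the compound wells of a plate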
Target sequence (P06935 1371-1501 limits assumed): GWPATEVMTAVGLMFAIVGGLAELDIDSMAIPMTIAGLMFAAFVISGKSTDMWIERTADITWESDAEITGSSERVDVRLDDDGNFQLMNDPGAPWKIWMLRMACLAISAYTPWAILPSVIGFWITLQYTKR
Target sequence (P06935 1502-1679 limits assumed): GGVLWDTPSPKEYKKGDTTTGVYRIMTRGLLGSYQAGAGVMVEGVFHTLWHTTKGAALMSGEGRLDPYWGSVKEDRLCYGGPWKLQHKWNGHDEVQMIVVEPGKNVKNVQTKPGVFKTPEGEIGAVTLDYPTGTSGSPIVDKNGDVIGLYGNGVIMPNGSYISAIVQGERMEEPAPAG
Hsc70 ATP site = Hsc70 inhibitors, probe displacement, primary screen, biochemical, fluorescence polarization (AID 568); Heat shock cognate 71 kDa protein (Homo sapiens); Hsc70 fluorescence polarization, probe displacement; higher % means a stronger effect; strong numbers were not always called active; displacement, % at 20 µM, or IC50 in µM where a hit was titrated; 83,000 tested, under 10 active;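 active = displacement above 50% without optical interference and an IC50 on retest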;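 also: ATPase domain with a fluorescein-tagged ATP probe; 0% = vehicle and 100% = excess ADP; read after one hour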
An asterisk follows results filed as active; i = inactive; nt = not tested or not shown.

Values in the order: MT1-MMP promoter | WNV NS2B-NS3 inh | Hsc70 ATP site
> CCOC(=O)Cc1csc(NC(=O)CSc2nnc(C3CC3)n2C)n1
→ i | 0.23 | -3.6%
> CCCCNC1C(CC)C(CCC)C(C#N)(C#N)C1(C#N)C#N (stereo not given)
→ i | 0.6 | 2.8%
> CC(OC(=O)Cn1c(C(F)(F)F)nc2ccccc21)C(=O)N1CCCc2ccccc21 (stereo not given)
→ i | nt | -6.2%
> O=C(CCOc1ccccc1)OCC(=O)c1cc2ccccc2o1
→ i | -1.06 | -31.2%
> CCOC(=O)C1=C(CSCC(=O)OC)NC(=O)NC1c1cc(C)ccc1C (stereo not given)
→ i | nt | 0.3%
> COc1ccc(C(C)=O)cc1CSCCC(=O)O
→ i | -0.72 | -4.7%
> O=C(CCCN1C(=O)c2ccccc2C1=O)NCCCN1CCOCC1
→ i | -2.06 | -2.1%
> C=CCN(CC=C)S(=O)(=O)c1ccc2nc(NC(=O)C(C)C)sc2c1
→ i | -1.14 | 0.3%
> O=C(NCc1ccco1)c1cccc(F)c1
→ i | -0.85 | -1.2%
> CC1Cc2ccccc2N1S(=O)(=O)c1cccc(C(=O)NCCCO)c1 (stereo not given)
→ i | -0.68 | -2.9%
> COc1ccccc1-n1c(-c2ccc(NS(C)(=O)=O)cc2)n[nH]c1=S
→ i | nt | -0.9%
> O=C1CC(N2CCN(Cc3ccccc3)CC2)C(=O)N1c1ccc2c(c1)OCCO2 (stereo not given)
→ i | nt | -1.3%
> Cn1c(C(C#N)C(=O)c2sc3ccccc3c2Cl)nc2ccccc21 (stereo not given)
→ i | 1.23 | -3.7%
> O=C(OCc1nnc(-c2ccccc2)o1)c1ccco1
→ i | 1.15 | 7.0%
> CCn1c(CNc2ccc(F)cc2)nnc1SCC(=O)Nc1ccc(OC)cc1
→ i | nt | -5.4%
> COc1ccc2ccccc2c1C1CC(=O)N2CN(C3CCCCC3)CSC2=C1C#N (stereo not given)
→ i | 1.53 | -2.4%
> COc1cc(CC(=O)NCc2cccs2)cc(OC)c1OC
→ i | nt | 0.8%
> Cc1ccc(C(C(=O)NC2CCCC2)N(Cc2ccco2)C(=O)CCC(=O)Nc2ccccn2)cc1 (stereo not given)
→ i | 0.98 | 4.9%
> CC1=NC(=O)C(N=Nc2ccccc2)N1c1ccccc1 (stereo not given)
→ i | nt | -0.6%
> CCCn1c(SCC(=O)NC2CCCCC2)nnc1-c1ccncc1
→ i | 1.1 | -6.0%
> COC(=O)c1ccc(C2C3=C(Nc4nnnn42)c2ccccc2OC3)cc1 (stereo not given)
→ i | -0.52 | 3.3%
> Cc1ccc(C(=O)Nc2c(-c3cccs3)c(=O)c3ccccc3n2C)cc1
→ i | nt | -6.1%
> COc1ccc(C(NC(=O)c2ccco2)c2ccc(OC)c(OC)c2)cc1OC
→ i | -0.23 | -0.7%
> O=C(CSc1nnnn1Cc1ccccc1)c1ccccc1
→ i | -0.24 | -1.2%
> CCOC(=O)C(C)Sc1nc(-c2ccc(OC)cc2)nc2c1c(=O)n(C)c(=O)n2C (stereo not given)
→ i | 0.83 | 2.6%
> Clc1ccc2c(c1)CCc1cccnc1C2=C1CCNCC1
→ i | nt | 2.6%
> COc1ccc(C(=O)CSc2nnc(COc3ccccc3)n2Cc2ccco2)cc1
→ i | 1.39 | -0.1%
> CCN1C(=O)CC(C(=O)Nc2ccc(F)cc2)SC1=Nc1ccc2c(c1)OCO2 (stereo not given)
→ i | 0.06 | 1.1%
> CCOC(=O)C(C(=O)OCC)C(C)C#CCN1CCCCC1 (stereo not given)
→ i | -0.38 | 0.9%
> CN(C)/C=C1/C=C(c2ccccc2)OC1=O
→ i | nt | 4.4%

Single records (already shown). Screens in order: MT1-MMP promoter	WNV NS2B-NS3 inh	Hsc70 ATP site
Clc1ccc2c(c1)CCc1cccnc1C2=C1CCNCC1 is listed with i	nt	2.6%
COc1ccc(C(=O)CSc2nnc(COc3ccccc3)n2Cc2ccco2)cc1 is listed with i	1.39	-0.1%
Cc1ccc(C(C(=O)NC2CCCC2)N(Cc2ccco2)C(=O)CCC(=O)Nc2ccccn2)cc1 (stereo not given) is listed with i	0.98	4.9%
COc1cc(CC(=O)NCc2cccs2)cc(OC)c1OC is listed with i	nt	0.8%
CN(C)/C=C1/C=C(c2ccccc2)OC1=O is listed with i	nt	4.4%

(continued)
Values in the order: MT1-MMP promoter | WNV NS2B-NS3 inh | Hsc70 ATP site
> Cc1ccc(Nc2nnc(SCc3cc(=O)n4ccsc4n3)s2)c(C)c1
→ i | -0.24 | 13.1%
> Cc1ccc(-c2noc(CCCc3ccccc3)n2)cc1
→ i | nt | -2.1%
> Brc1ccccc1-c1nnc2sc(-c3ccc4c(c3)OCCO4)nn12
→ i | -0.29 | 1.8%
> CCC1(C)Cc2c(sc3c2c(=O)n(C)c2nnc(SCc4ccccc4)n32)CO1 (stereo not given)
→ i | 0.88 | -3.3%
> Cn1cnnc1SC(C(=O)Nc1ccc(F)cc1)c1ccccc1 (stereo not given)
→ i | nt | 2.4%
> CN1C(=S)SC(N(O)C(=O)Nc2cccc3ccccc23)C1(C)C (stereo not given)
→ i | nt | 2.5%
> Cc1ccc(CS(=O)(=O)CCC(=O)NCc2cccs2)cc1
→ i | -0.01 | 3.1%
> Cn1c(=O)cc(SCC(=O)Nc2cccnc2)c2ccccc21
→ i | 1.08 | 7.3%
> O=C(CSc1nc2c(sc3ccccc32)c(=O)n1CCO)NCC1CCCO1 (stereo not given)
→ i | -0.99 | 1.7%
> CC(C)Oc1ccc(C(=O)N2CCCc3ccccc32)cc1
→ i | -0.54 | -0.4%
> O=C(O)CCCC(=O)N(Cc1ccccc1)Cc1ccccc1
→ i | -0.97 | 12.6%
> O=c1[nH]c(=S)[nH]nc1Cc1ccccc1
→ i | -1.06 | 2.2%
> NC(=O)c1ccccc1NC(=O)c1ccccc1F
→ i | -0.24 | -1.7%
> CCOCCc1nnc(NC(=O)Cc2ccc(Br)cc2)s1
→ i | nt | 0.4%
> CC1(C)CC(=O)N(CC(=O)O)c2ccccc2S1
→ i | 0.59 | 0.0%
> O=C(c1ccco1)N1CCN(c2nc(C(F)(F)F)nc3c2nnn3Cc2ccccc2)CC1
→ i | -0.73 | -2.9%
> Cn1c(NCc2ccccc2Cl)nc2ccccc21
→ i | -1.06 | 5.9%
> CCN(CC)S(=O)(=O)c1cccc(C(=O)Nc2sc3c(c2C(N)=O)CCCC3)c1
→ i | nt | -2.4%
> CC1(C)Cc2c(oc3ncn4ncnc4c23)CO1
→ i | 0.94 | -0.7%
> C=CCOC(=O)C1=C(C)NC2(O)c3ccccc3C(=O)C12O (stereo not given)
→ i | -0.31 | -1.4%
> COc1ccc(OC)c(C(=O)Cn2nnc3ccccc3c2=O)c1
→ i | 0.57 | 2.8%
> O=c1[nH]c2cc3c(cc2cc1C(c1nnnn1C1CCCCC1)N1CCSCC1)OCCO3 (stereo not given)
→ i | -1.03 | 4.2%
> CCC(C)NC(=O)C1(C)CCC(=O)N1Cc1ccccc1OC (stereo not given)
→ i | -0.41 | 1.5%
> COc1ccc(S(=O)(=O)NCc2ccc3c(c2)cc(C)n3C)cc1
→ i | -0.25 | -5.7%
> COc1ccc(CNc2cc(C)ccc2C)c(OC)c1OC
→ i | -0.86 | 4.9%
> CCNc1nc(SCCOc2ccccc2)nc(N(C)C)n1
→ i | 0.48 | -4.8%
> CC(=O)N(CCC(c1ccccc1)c1ccco1)Cc1cccs1 (stereo not given)
→ i | nt | -5.1%
> CCOC(=O)C(C)n1cnc2sc3c(c2c1=O)CCC3 (stereo not given)
→ i | 0.75 | -7.7%
> Cc1ccc(C(=O)N/N=C/c2ccc(S(=O)(=O)O)o2)c(Cl)c1
→ i | nt | -3.1%
> O=C(Nc1ccc2c(c1)OCO2)c1noc2c1CCCCC2
→ i | -0.04 | -1.3%
> O=C(Nc1ccccc1)N1CCCC(c2nc(-c3cccs3)no2)C1 (stereo not given)
→ i | -1.17 | -4.2%
> CCOC(=O)N1CCN(C(c2cccc(OC)c2)c2sc3nc(C)nn3c2O)CC1 (stereo not given)
→ i | 0.46 | -1.1%
> CS(=O)(=O)N(Cc1ccccc1)c1ccc(C(=O)NCCSCc2ccco2)cc1
→ i | nt | 1.2%
> CCOc1ccc(OCC)c(NC(=O)CCCN2C(=O)c3cccnc3C2=O)c1
→ i | 0.83 | -7.6%
> Cc1c(N/C=C/C(=O)c2ccc(Cl)cc2)c(=O)n(-c2ccccc2)n1C
→ i | nt | -2.1%
> CCCn1c(SC2C(=O)CC(C)(C)CC2=O)nc2c1c(=O)n(C)c(=O)n2C
→ i | -0.47 | -5.2%
> O=C(CCCn1c(SCC(=O)c2ccc(F)cc2)nc2ccccc2c1=O)NCc1ccccc1
→ i | nt | 0.1%
> COc1cccc(C(=O)CSc2nnnn2C)c1
→ i | 0.43 | 3.9%
> Cc1ccc2c(c1)-c1c(cnn1CC(=O)Nc1ccccc1N1CCN(C)CC1)CO2
→ i | -1.04 | 9.0%
> COc1ccc2[nH]c(C)c(CCN3C(=O)C4C5C=CC(C5)C4C3=O)c2c1 (stereo not given)
→ i | -0.19 | 4.1%
> Cc1noc(C)c1CN1C(=O)NC(Cc2ccccc2)(Cc2ccccc2)C1=O
→ i | 0.83 | -0.4%
> COc1cc2c(cc1NC(=O)CSc1nnc(Cc3cccs3)n1C)oc1ccccc12
→ i | -0.48 | -5.3%
> COC(=O)C(OC(=O)c1ccc(OC)cc1)C(=O)OC
→ i | nt | -6.5%
> COc1cccc(-c2nn(C)c3sc(C(=O)Nc4ccc5c(c4)OCCO5)cc23)c1
→ i | -0.72 | 2.8%
> CCOc1ccc(CN(Cc2ccco2)S(=O)(=O)c2ccc(-n3cnnn3)c(OC)c2)cc1
→ i | nt | 3.5%
> COc1cc(C(=O)N(C)c2nnc(-c3cccnc3)s2)cc(OC)c1OC
→ i | 0.39 | 4.9%
> CN(C)/C=N/c1c(C(=O)NCc2ccccc2)nnn1Cc1ccccc1
→ i | -0.25 | -6.3%
> Cc1cc(C(=O)Nc2sc(C)c(-c3ccc(F)cc3)c2C(N)=O)no1
→ i | -0.47 | 1.4%
> O=C(Nc1ccc2oc(Cc3ccc(Cl)cc3)nc2c1)c1cccnc1
→ i | -0.06 | -0.4%
> Cc1c(NC(=O)C2CCCN2S(=O)(=O)c2ccc(Cl)cc2)c(=O)n(-c2ccccc2)n1C (stereo not given)
→ i | 0.03 | -2.3%
> COC(=O)c1cccc(COC(=O)CNC(=O)c2ccco2)c1
→ i | 0.07 | 1.8%
> CCc1c(C(=O)NC2CCCCC2)[nH]c(C)c1C(C)=O
→ i | 0.81 | -5.1%
> COc1cc(-c2nc(-c3ccccc3)c(-c3cccs3)[nH]2)cc(OC)c1OC
→ i | nt | -8.2%
> CS(=O)(=O)n1nc(-c2ccccc2)nc1NCc1ccco1
→ i | nt | 2.1%
> O=C(Nc1ccc(F)c(F)c1)c1cccnc1
→ i | 0.19 | -5.4%
> CC(C)Cn1cc(C(=O)N2CCN(c3ccccn3)CC2)c2c3ccccc3n(C)c2c1=O
→ i | -0.42 | 2.6%
> CCCCN(C)S(=O)(=O)c1ccc(C(=O)Nc2nnc(CSC)o2)cc1
→ i | -0.85 | 1.7%
> CCOc1ccccc1C(=O)NC1CC2CCCC(C1)N2C1CC1 (stereo not given)
→ i | -0.32 | 2.4%
> CCNc1nc(NC(C)C)nc(Oc2ccc(OCCOc3ccccc3)nn2)n1
→ i | 1.18 | -4.9%
> CC(=O)c1cccc(N(C(=O)c2ccco2)C(C(=O)NC2CCCC2)c2ccncc2)c1 (stereo not given)
→ i | -0.76 | -2.6%

(list continues)
Values in the order: MT1-MMP promoter | WNV NS2B-NS3 inh | Hsc70 ATP site
> CCOc1ccc(NC(=O)c2ccc3nccnc3c2)cc1
→ i | nt | 6.1%
> CS(=O)(=O)C1=C(O)C(=O)N(c2ccccc2)C1c1ccccc1 (stereo not given)
→ i | -0.62 | -6.8%
> CCOC(=O)CN(C(=O)CSc1nnc(-c2ccncc2)n1CCCN(C)C)c1ccccc1
→ i | 0.1 | 3.6%
> CC(=O)NC(C)c1nc2ccccc2n1C(C)C (stereo not given)
→ i | 0.32 | 7.3%
> CCn1c(CCNC(=O)c2ccc(Cl)cc2)nnc1SCC(=O)NC1CCCC1
→ i | -0.05 | -4.7%
> CCC(=O)c1ccc(OCC(O)Cn2cnc3ccccc32)cc1 (stereo not given)
→ i | 0.76 | -5.9%
> Clc1ccc(-c2ccc(-c3nn4c(-c5ccco5)nnc4s3)o2)cc1
→ i | 0.85 | -8.8%
> COC(=O)c1ccccc1NC(NC(=O)c1ccco1)C(=O)c1ccc(C)cc1 (stereo not given)
→ i | -0.1 | -1.7%
> CCN(CC)CCN1C(=O)C(=O)/C(=C(/O)c2c(C)[nH]c(C(=O)OC)c2C)C1c1cccc(OC)c1 (stereo not given)
→ i | 0.14 | -2.1%
> O=C1OC2(CCCCC2)OC(=O)C1=CNc1nccs1
→ i | -0.65 | -5.9%
> Cc1cccc2cc(CN(Cc3nnnn3C3CCCCC3)C3CCCC3)c3nnnn3c12
→ i | nt | -0.4%
> COCc1cc(C)nc(NCCO)c1C#N
→ i | nt | 7.2%
> NC(=O)c1ccc2c(c1)OCCO2
→ i | -0.57 | 0.0%
> CCCC(C(=O)NCc1ccco1)N(C(=O)CNS(=O)(=O)c1ccccc1)c1ccccc1OC (stereo not given)
→ i | -0.21 | 2.3%
> CCOC(=O)N1CCC(NCCNC(=O)c2ccccc2)CC1
→ i | 0.91 | -0.3%
> c1csc(-c2nc3ccccc3[nH]2)c1
→ i | -0.41 | 2.0%

An excerpt; rates above refer to the full screens.
